Compound activity deposited in PubChem by several laboratories.
Arbovirus anti: antivirals against arbovirus infection, primary screen, cell-based, full library, 10K replicate subset. 200,000 compounds, 0.37% hits. arbovirus infection cell-based antiviral screen. inhibition, % at 10 µM;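 active = inhibition from about 30%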;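 note: bluetongue infection of BSR cells; cell survival read as ATP light after 72 h; 0% = infected wells without compound and 100% = uninfected wells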
Mtb growth: M. tuberculosis H37Rv growth inhibitors, H37Rv strain (AID 1626); 220,000 compounds, 0.95% hits; one-dose inhibition, % at 10 µM; IC50 in µM for titrated hits; M. tuberculosis H37Rv growth inhibition; higher % means a stronger effect;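 active = confirmed in a dose series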;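 note: bacteria incubated seven days before Alamar blue readout; 0% = bacteria only wells and 100% = bacteria with antibiotic wells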
YopH inh: YopH tyrosine phosphatase inhibitors, primary screen, biochemical, fluorescence Ex485/Em525. inhibition, %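 (about 10 µM by stock and volumes)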. 140,000 compounds, 0.16% hits. YopH tyrosine phosphatase [Yersinia enterocolitica];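 active = inhibition of 50% or more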;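 note: controls were vehicle for no effect and minimum signal wells for full effect; inactives centre near -20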
Mtb betalactam: beta-lactam sensitization of Mtb H37Rv, H37Rv | M. tuberculosis H37Rv growth with meropenem, percent inhibition; hits of this screen are not shown here | inhibition, % at 25 µM | 330,000 compounds, 0.27% hits;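 active = about 74% or more and at least 40 points above the plate without the antibiotic, then above 30% in a dose series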;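 note: growth measured after seven days incubation then overnight dye step; 0% = bacteria only wells and 100% = bacteria with antibiotic; twin plates without the antibiotic show which effects depend on it; some results filed as inactive read as strong as hits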
RecA intein inh: Mtb RecA intein splicing inhibitors, primary screen, biochemical, fluorescence, HTS | Protein RecA (Mycobacterium tuberculosis (strain ATCC 25618 / H37Rv)), P9WHJ3 | cell-free RecA intein splicing | inhibition, %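 (about 9 µM by stock and volumes)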 | 290,000 compounds, 0.75% hits; in the data active = inhibition above about 30%;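 note: 0% = vehicle wells and 100% = reference inhibitor control wells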
Target sequence (P9WHJ3 whole entry, looked up): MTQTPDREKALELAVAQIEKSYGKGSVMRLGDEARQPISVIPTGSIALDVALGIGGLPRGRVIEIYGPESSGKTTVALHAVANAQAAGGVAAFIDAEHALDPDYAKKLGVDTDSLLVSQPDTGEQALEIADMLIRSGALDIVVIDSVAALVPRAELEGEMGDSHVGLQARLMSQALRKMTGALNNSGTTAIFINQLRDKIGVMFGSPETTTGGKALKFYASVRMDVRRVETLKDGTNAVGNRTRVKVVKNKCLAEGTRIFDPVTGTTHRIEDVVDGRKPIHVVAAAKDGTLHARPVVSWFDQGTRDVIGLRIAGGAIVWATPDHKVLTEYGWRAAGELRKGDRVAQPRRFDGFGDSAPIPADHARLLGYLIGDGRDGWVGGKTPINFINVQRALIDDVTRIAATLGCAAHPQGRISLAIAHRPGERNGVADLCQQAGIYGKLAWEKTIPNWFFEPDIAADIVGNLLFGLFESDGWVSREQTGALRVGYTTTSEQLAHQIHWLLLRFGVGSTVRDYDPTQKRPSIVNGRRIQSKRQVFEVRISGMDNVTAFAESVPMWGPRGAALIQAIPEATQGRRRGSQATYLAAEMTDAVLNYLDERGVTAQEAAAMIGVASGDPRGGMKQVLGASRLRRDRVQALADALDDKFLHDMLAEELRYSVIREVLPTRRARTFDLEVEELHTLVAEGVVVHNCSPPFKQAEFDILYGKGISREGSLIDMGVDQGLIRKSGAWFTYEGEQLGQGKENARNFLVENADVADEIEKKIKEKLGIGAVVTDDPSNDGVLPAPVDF
Arbovirus anti repeat: also measured in Arbovirus anti; calls as there; inhibition, %; measured here: 10K subset replicate screen; many hits read low in the repeat;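 first of two repeat runs on a subset; 0% = infected and 100% = uninfected wells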
Starred values were filed as active, the others as inactive; . = no result given. An excerpt, so the mix of outcomes need not match the whole.

SMILES | Arbovirus anti | Mtb growth | YopH inh | Mtb betalactam | RecA intein inh | others
CCOC(=O)N1CCN(C(=O)CC(C(=O)N2CCc3ccccc32)n2ccnc2)CC1 (centres undefined) | -5 | -4% | -24 | 2 | 1.4
O=c1c2ccccc2nc(/C=C/c2ccc(O)cc2)n1CCc1ccccc1 | -11 | 17% | -22 | 2 | -3.0
COc1cccc(OCC(=O)NNC(=O)Cc2cccs2)c1 | 4 | -3% | -20 | -2 | -0.4
COc1cc(/C=C2/NC(=O)N(c3cccc(Cl)c3)C2=O)ccc1O | -23 | -7% | . | 0 | -5.4
O=C1OCCC1Sc1nnc(-c2ccc(O)cc2)o1 (centres undefined) | 5 | -2% | 12 | 0 | -1.4
O=[N+]([O-])c1cccnc1N1CCN(c2ccccc2F)CC1 | -3 | -7% | . | 0 | 1.1
CCCC(=O)Nc1cc(C)c(NC(=O)C23CC4CC(CC(C4)C2)C3)cn1 | 9 | -14% | -11 | -7 | -3.2
CC(Sc1nnc(-c2ccc(Cl)cc2Cl)n1Cc1ccccc1)C(=O)Nc1nccs1 (centres undefined) | -17 | 9% | 16 | 1 | 15
O=C(CSc1cn[nH]n1)Nc1ccccc1C(=O)O | . | . | . | 3 | -5.3
CCOC(=O)Cn1nnnc1CN(Cc1cccs1)Cc1cc2cc(C)ccc2[nH]c1=O | 2 | -5% | -27 | 5 | 2.2
COC(=O)Cc1cc(=O)n(-c2nc3ccccc3s2)[nH]1 | -7 | -7% | 1 | 2 | 6.5
COc1ccc(/C=N/NC(=O)CN(C2=NS(=O)(=O)c3ccccc32)c2ccccc2)cc1OC | -7 | 8% | -34 | 1 | -4.6
Cc1ccccc1NC(=O)Cc1nc(COC(=O)/C=C/c2ccccc2)cs1 | . | . | . | 4 | -0.8
CC(C)(C)c1ccc(NC(=O)COC(=O)C2(C)CC2(Cl)Cl)cc1 (centres undefined) | -11 | -1% | . | -4 | 0.1
Cn1ccnc1SCC(=O)Nc1cccc(O)c1 | 5 | 2% | -4 | -4 | 1.4
O=C(NCCCNc1ccc(C(F)(F)F)cc1[N+](=O)[O-])c1ccc(F)cc1 | -5 | -4% | -20 | 57 | -2.7
O=c1/c(=C/c2ccc(O)cc2)sc2nc3cc(Br)cnc3n12 | -5 | -3% | . | -1 | 2.5
COc1ccc(NC(=O)Cn2nnc(C(=O)NCc3ccccc3OC)c2N)cc1Cl | -3 | -7% | 12 | -5 | 0.9
Cc1ccc(N2C(=O)C3CCC(c4ccccc4)CC3C2=O)cc1 (centres undefined) | 5 | -8% | -35 | 1 | -3.6
COc1ccc(NC(=O)CC2C(=O)N(c3ccc(OC)cc3)C(=O)N2CCN2CCN(C)CC2)cc1 (centres undefined) | 3 | 6% | -9 | -2 | -2.6
Nc1nnc(SCC(=O)Nc2cccnc2Cl)s1 | . | . | . | -12 | -0.7
NS(=O)(=O)c1ccc(NC(=O)COc2ccc(C(=O)c3ccc(F)cc3)cc2)cc1 | . | -10% | . | 3 | -0.1
O=C(Cn1ncc2c3ccccc3n(Cc3ccccc3)c2c1=O)NCCN1CCOCC1 | . | . | . | 2 | -0.9
CC(=O)Nc1ccc(-c2nc3ccccc3o2)cc1 | . | . | . | 2 | -1.8
COc1cccc(/C=N/Nc2ccc([N+](=O)[O-])cn2)c1O | . | . | . | 15 | 2.5
Cc1cc2nc(SCCOC(=O)Nc3cccc(Cl)c3)nc(C)c2cc1C | 4 | 76% | -3 | 1 | 7.5
COc1cccc(NC(=O)NCc2ccccn2)c1 | . | . | . | -16 | 1.1
COCCNC(=O)CSc1cc(-c2ccccc2)c2ccc(OC)cc2n1 | -19 | 2% | . | 9 | 6.8
CC1(C)c2ccccc2N2CCC(=O)NC21/C=C/c1ccco1 (centres undefined) | 4 | -10% | -47 | -15 | 1.0
CCNc1nc(NCC)n2c(SC(C(=O)Nc3cc(C)ccc3C)c3ccccc3)nnc2n1 (centres undefined) | 0 | 16% | -8 | 98 | 3.6
COc1ccc(OC)c(N(CC(=O)NCc2ccncc2)S(C)(=O)=O)c1 | 3 | -3% | -15 | -2 | 7.9
O=C(NC1CCSC1=O)c1ccc(Oc2ccc(F)cc2)nc1 (centres undefined) | -2 | 0% | -37 | 7 | 1.6
O=C(NCCc1ccc(Cl)cc1)c1cccc(N2CCCC2=O)c1 | . | . | . | -2 | -8.1
Cc1ccc(S(=O)(=O)N(Cc2ccccc2Cl)C(=O)N2CCN(C)CC2)cc1 | . | . | . | -14 | 4.3
O=C(Nc1cccnc1)c1cccnc1 | -1 | -2% | -32 | -5 | -2.9
COc1ccc(C(=O)N=c2sc3c(C)ccc(OC)c3n2C)cc1 | -9 | 4% | -33 | 0 | -4.6
CC(Sc1nncn1C)C(=O)Nc1cc(C(F)(F)F)ccc1N1CCOCC1 (centres undefined) | 15 | -9% | . | -5 | 0.2
O=C(/C=N/O)Nc1ccc(F)cc1 | -1 | -12% | -18 | -3 | -3.1
CCOc1ccc(C(=O)Nc2cc(C)c3c(=O)oc4ccccc4c3n2)cc1 | -5 | 8% | -3 | 2 | -0.6 | Arbovirus anti repeat=-2
COc1ccc(C(=O)Nc2ccc(C(F)(F)F)n(C)c2=O)cc1 | -6 | -1% | -52 | 5 | 1.3

By substructure: the compounds so far with an NH in an aromatic ring (three)
SMILES | Arbovirus anti | Mtb growth | YopH inh | Mtb betalactam | RecA intein inh | others
O=C(CSc1cn[nH]n1)Nc1ccccc1C(=O)O | . | . | . | 3 | -5.3
CCOC(=O)Cn1nnnc1CN(Cc1cccs1)Cc1cc2cc(C)ccc2[nH]c1=O | 2 | -5% | -27 | 5 | 2.2
COC(=O)Cc1cc(=O)n(-c2nc3ccccc3s2)[nH]1 | -7 | -7% | 1 | 2 | 6.5

(further entries)
SMILES | Arbovirus anti | Mtb growth | YopH inh | Mtb betalactam | RecA intein inh | others
O=C1NC(=O)C(CCc2ccncc2)(c2ccccc2)C(=O)N1 | 0 | -1% | 34 | 2 | 0.3
CC1NC(C)(C)Cc2c1ccc1ccccc21 (centres undefined) | -10 | -7% | . | -8 | 0.8
Clc1cccc(Cl)c1C1Nc2cccc3cccc(c23)N1 | . | . | . | 24 | -12
O=C(C[n+]1cc(-c2ccccc2)n2c1CCC2)Nc1nc(-c2ccccc2)cs1 | 0 | 78% | 17 | 81 | 3.4
c1cn(C23CC4CC(CC(C4)C2)C3)cn1 | -12 | -6% | -30 | -1 | 1.2
NC(=O)C1CCN(c2ccc(S(=O)(=O)N3CCCCC3)cn2)CC1 | 10 | 5% | . | 4 | -0.8
CCOC(=O)/C(C#N)=C1/C=Cc2ccccc2N1CC | 2 | 1% | -13 | 0 | 3.8
O=C(Cc1ccccc1)NS(=O)(=O)c1ccc(N=NN2CCOCC2)cc1 | 1 | -5% | . | 5 | 0.5
NC(=O)CN1CCOCCOCCN(CC(N)=O)CCOCCOCC1 | -2 | 4% | -9 | -10 | -0.7
CCOC(=O)C1=C(c2ccc(O)cc2)NC(=O)NC1C (centres undefined) | . | . | . | -6 | -0.5

Next section; it opens with the two that closed the last part.
SMILES | Arbovirus anti | Mtb growth | YopH inh | Mtb betalactam | RecA intein inh | others
NC(=O)CN1CCOCCOCCN(CC(N)=O)CCOCCOCC1 | -2 | 4% | -9 | -10 | -0.7
CCOC(=O)C1=C(c2ccc(O)cc2)NC(=O)NC1C (centres undefined) | . | . | . | -6 | -0.5
CCOC(=O)N1CCC(NC(=O)C(CC(C)C)NC(=O)C2CCCCC2)CC1 (centres undefined) | 5 | -3% | -24 | -11 | -3.5 | Arbovirus anti repeat=2
CCN(CC)C(=O)C(=O)c1cc(C)n(-c2ccc(F)cc2)c1C | -4 | -1% | . | -3 | 1.8
CC1CCCN(C(=O)C2CCN(S(=O)(=O)c3cccc4cccnc34)CC2)C1 (centres undefined) | -3 | -14% | -27 | -1 | 1.1 | Arbovirus anti repeat=3
O=C(OCc1ccc2c(c1)OCO2)c1cccc(S(=O)(=O)N2CCCCC2)c1 | 8 | -3% | 5 | 9 | 7.8
Cc1c(Cl)cccc1NC(=O)N1CCN(C(=O)c2ccco2)CC1 | . | . | . | -2 | -5.7
COc1cccc(NS(=O)(=O)c2ccc3c(c2)NC(=O)CC(=O)N3)c1 | . | . | . | 4 | -1.4
Cc1ccc(S(=O)(=O)NC2c3cccc4cccc(c34)C2Sc2n[nH]c(N)n2)cc1 (centres undefined) | 15 | 7% | -18 | 4 | 1.9
COc1ccc(CCN2C(=O)CC(N3CCN(c4ccccn4)CC3)C2=O)cc1OC (centres undefined) | 6 | 1% | -24 | -4 | -2.9
CS(=O)(=O)c1ccc(Cl)c(NC(=O)CSc2nncn2-c2ccccc2)c1 | . | . | . | -2 | -1.8
CCCNC(=O)COc1coc(CN2CCN(C(=O)c3ccco3)CC2)cc1=O | . | . | . | -2 | -1.0
Cc1cccc(Oc2nc(CN3CCOCC3)nc3sc4c(c23)CCCC4)c1 | -28 | 14% | -17 | 98 | 5.2
Nc1cccnc1Sc1ccccc1 | . | . | . | 5 | 4.5
Cc1[nH]n(-c2ccccc2)c(=O)c1-c1cccc(Cl)c1 | 11 | 4% | -29 | 7 | -1.9
CCC(c1nnnn1CS(=O)(=O)c1ccc(C)cc1)N1CCN(c2nc3ccccc3s2)CC1 (centres undefined) | 2 | 10% | -42 | -12 | -2.0
O=C(Nc1cc(Br)ccc1O)C1CC(c2ccccc2Cl)=NO1 (centres undefined) | . | . | . | 81 | 16
COc1cccc(Nc2ncnc3sccc23)c1 | . | . | . | 3 | 2.9
CCCNC(=O)c1cc(S(=O)(=O)N2CCc3ccccc32)ccc1F | 8 | -1% | 17 | -3 | 1.0
CCOc1ccc(N(CC(=O)Nc2ccc3c(c2)OCCO3)S(=O)(=O)c2c(C)noc2C)cc1 | 5 | 1% | 3 | -1 | 2.3 | Arbovirus anti repeat=1
Cc1cc(N2C(=O)CC(N3CCN(C(c4ccccc4)c4ccccc4)CC3)C2=O)no1 (centres undefined) | 6 | 7% | -32 | -13 | 1.6
Cc1ccc(NC(=O)Nc2ccc(C(=O)N3CCOCC3)cc2)cc1 | 3 | -4% | -12 | 8 | 2.7

Grouped by structure, the entries above with bromine.
SMILES | Arbovirus anti | Mtb growth | YopH inh | Mtb betalactam | RecA intein inh | others
O=c1/c(=C/c2ccc(O)cc2)sc2nc3cc(Br)cnc3n12 | -5 | -3% | . | -1 | 2.5
O=C(Nc1cc(Br)ccc1O)C1CC(c2ccccc2Cl)=NO1 (centres undefined) | . | . | . | 81 | 16

More compounds
SMILES | Arbovirus anti | Mtb growth | YopH inh | Mtb betalactam | RecA intein inh | others
O=C(N/N=C/c1cccc2ccccc12)c1n[nH]c2c1CCCC2 | -16 | -2% | . | -5 | -0.9
COCCN(Cc1cc2cc3c(cc2[nH]c1=O)OCO3)C(=O)c1cccs1 | 2 | 0% | -50 | . | .
O=C(Nc1ccccn1)c1ccc2c(c1)S(=O)(=O)c1ccccc1C2=O | -2 | -5% | -31 | -19 | -0.8
CCC1Oc2ccc(C)cc2N(CC(=O)NCc2ccco2)C1=O (centres undefined) | 3 | -2% | . | 11 | 1.1
CC(C)CC(=O)Nc1c2c(nn1-c1cccc(Cl)c1)CS(=O)(=O)C2 | . | . | . | -4 | -1.0
CCOc1ccc(CC(=O)NNC(=S)NC2CCCCC2)cc1OCC | 2 | -1% | -38 | -27 | -0.9
CCC1CCC2(CC1)NC(CO)(CO)CO2 (centres undefined) | -1 | 4% | -33 | -3 | 0.6
Cc1ccc(/C=N/n2c(C)nnc2C)s1 | 3 | 0% | -25 | -3 | -3.9
O=C(c1cc(-c2ccc(Cl)c(Cl)c2)on1)N1CCCC1 | -3 | 0% | -35 | . | . | Arbovirus anti repeat=7
O=C(NC1CC2CCCC(C1)N2S(=O)(=O)c1ccccc1)c1ccco1 (centres undefined) | 8 | 0% | 3 | -1 | 0.4
COc1cc(C(=O)NCCN2CCN(C(=O)c3cc(OC)c(OC)c(OC)c3)CC2)cc(OC)c1OC | . | . | . | 0 | 0.2
O=C(COc1ccc([N+](=O)[O-])cc1)Nc1ccncc1 | 5 | 1% | . | -4 | -1.5
C=CCNC(=O)COc1ccccc1C#N | 2 | 4% | . | 1 | -0.9
Cc1ccc(NC(=O)C2CCCN2S(=O)(=O)c2ccc(-c3ccc(=O)[nH]n3)s2)c(C)c1 (centres undefined) | . | . | . | -8 | 1.0
O=C(CSc1nnc(-c2ccccc2)n1Cc1ccco1)Nc1ccc(S(=O)(=O)N2CCCC2)cc1 | -15 | 2% | 1 | -8 | -2.2
CCCc1ncc(CN2CCC(C(=O)Nc3cccc(-c4cscn4)c3)CC2)cn1 | . | . | . | 4 | 3.4
O=C(N/N=C/C=C\c1ccccc1[N+](=O)[O-])c1ccco1 | 7 | 0% | . | -1 | -1.6
CCOC(=O)CC(NC(=O)Cc1cccs1)c1ccccc1Cl (centres undefined) | . | . | . | 3 | 1.7
